VDR inhibitor – Inhibitors of the vitamin D receptor (VDR): qHTS; VDR-SRC2-3 peptide fluorescence polarization, 2 h; Potency, µM, for the others: max response, negative = inhibition, hits mostly inhibitors; 0.93% of 400,000 active; AID 504847, 2011; active = well fitted inhibition curve with a large enough effect; inconclusive = small, poorly fitted or top-dose-only effect, or another doubt; inactive = no such curve, though single readings can be large or run the other way; also: series mostly up to about 120 µM
Target sequence (P11473 whole entry, looked up): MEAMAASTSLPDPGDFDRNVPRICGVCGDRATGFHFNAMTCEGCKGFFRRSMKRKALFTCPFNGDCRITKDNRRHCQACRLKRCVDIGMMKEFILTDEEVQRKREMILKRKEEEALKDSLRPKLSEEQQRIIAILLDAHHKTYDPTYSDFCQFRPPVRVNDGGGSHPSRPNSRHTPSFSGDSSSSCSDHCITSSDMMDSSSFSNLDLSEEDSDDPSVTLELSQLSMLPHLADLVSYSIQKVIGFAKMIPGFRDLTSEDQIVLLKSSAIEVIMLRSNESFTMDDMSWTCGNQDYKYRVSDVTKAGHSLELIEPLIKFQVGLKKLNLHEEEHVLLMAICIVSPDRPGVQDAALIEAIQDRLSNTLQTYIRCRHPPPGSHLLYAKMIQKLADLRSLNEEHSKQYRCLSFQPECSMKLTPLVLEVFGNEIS
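VDR–SRC2-3 interaction, FP format. Cmpds 23 nl via pintool, brief spin, 2 h ambient incubation.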
Active calls of the source: *; & = joins results of further samples; [ ] = remark or other dose. % is scaled to controls: 0 for no effect and ±100 for the full control effect; potency is read from the fitted curve at half-maximal effect.

Screening CCOC(=O)/C(C#N)=C/C1=C(N2CCOCC2)C(C)(C)OCC1 returned VDR inhibitor -1%.
For CC(=O)C1CCC2C3CC=C4CC(O)CC[C@@]4(C)C3CC[C@]12C (some centres not stated) the results were VDR inhibitor 2%.
For COc1ccc(CCNC(=O)c2c(C)nc3ccccn23)cc1 the results were VDR inhibitor 4%.
`CC(CCc1ccccc1)NC(=S)NC(=O)c1ccco1` (configuration not stated) gave VDR inhibitor -27%.
Screening Cc1cccc(/C=N/NC(=O)c2ccc(NC(=O)c3ccc(F)cc3)cc2)n1 returned VDR inhibitor 5%.
Screening Cc1ccc(S(=O)(=O)N2CCN(c3ncnc4sccc34)CC2)cc1C returned VDR inhibitor -3%.
COc1ccc(C(=O)OCC[N+]2(C)CCCCC2)cc1 was read as VDR inhibitor -24%.
COc1ccc(-c2nc(CS(=O)CC(=O)NC3CCCc4ccccc43)c(C)o2)cc1OC (configuration not stated) was read as VDR inhibitor -5%.
Screening CNc1ccc(C(=O)Oc2cc(O/N=[N+](\[O-])N(C)C)c([N+](=O)[O-])cc2[N+](=O)[O-])cc1 returned VDR inhibitor -4%.
Screening O=C(NN=Cc1ccc2c(c1)OCO2)C1CC1 returned VDR inhibitor -6%.
Screening Cn1cnnc1SCc1ccc(C(=O)N=Nc2c(O)n(Cc3ccc(Cl)cc3)c3ccccc23)cc1 returned VDR inhibitor -2%.
O=C(c1ccc(F)cc1)n1nc(-c2ccc(Cl)cc2)nc1NCc1ccco1 was read as VDR inhibitor 9%.
C=C(C)Cn1c(SCC(=O)NCc2ccco2)nc2sc3c(c2c1=O)CCC3 was read as VDR inhibitor 5%.
For COc1ccc(C(=O)c2cc([N+](=O)[O-])ccc2N2CCOCC2)cc1 the results were VDR inhibitor -29%.
C=CCC(CC=C)(CNC(=O)C(=O)Nc1cc(C)ccc1OC)c1ccc(OC)c(OC)c1 was read as VDR inhibitor 13%.
`N#C/C(=C/c1ccc(N2CCCCCC2)o1)c1cccc(F)c1` gave VDR inhibitor 45µM*.
`Cc1c(N(C(=O)c2ccccn2)C2(C(=O)NC3CCCCC3)CCCCC2)c(=O)n(-c2ccccc2)n1C` gave VDR inhibitor -16%.
COc1ccc2c(c1)CCC/C2=N\Nc1nc(C(=O)NN)cs1 was read as VDR inhibitor inconclusive.
For Cc1ccc(NC(=O)C2Cc3ccccc3O/C2=N\O)cc1C (configuration not stated) the results were VDR inhibitor -1%.
`Cc1ccc2nc(N3CCOCC3)c(C=O)cc2c1` gave VDR inhibitor 2%.
COC(=O)c1cc(O)c(O)c(O)c1 was read as VDR inhibitor -4%.
For O=C(CN1CCOCC1)Nc1nc2ccc(Cl)cc2s1 the results were VDR inhibitor -24%.
For COc1ccc(CNS(=O)(=O)c2cc(Br)cc3c2N(C(C)=O)C(C)C3)cc1 (configuration not stated) the results were VDR inhibitor -13%&-7%.
For CCNc1cc(N2CCCC2)ccc1[N+](=O)[O-] the results were VDR inhibitor 12%.
Screening Cn1cccc1C(=O)N1CCC2(CC1)CN(C(=O)Nc1ccccc1)C2 returned VDR inhibitor 3%.
`COC(=O)c1sccc1S(=O)(=O)N(CC(=O)Nc1ccccc1)c1ccccc1` gave VDR inhibitor 1%.
For Cc1nc2ccn(Cc3ccco3)c(=O)c2cc1C(=O)NCc1ccc(F)cc1 the results were VDR inhibitor -8%.
Screening CCCn1c2ccc(F)cc2c2nnc(SCCN(CC)CC)nc21 returned VDR inhibitor inconclusive.
`Cc1ccc(NC(=O)Cn2ccc([N+](=O)[O-])n2)cc1C` gave VDR inhibitor -9%.
CCOC(=O)c1ccc(N2C(=O)c3n[nH]c(-c4ccco4)c3C2c2ccc(OCC)cc2)cc1 (configuration not stated) was read as VDR inhibitor -4%.
`Cn1c(N)c(C(=O)COC(=O)CC2CC3CCC2C3)c(=O)n(C)c1=O` (configuration not stated) gave VDR inhibitor -3%.
Cc1ccc(S(=O)(=O)CC(N)=O)cc1 was read as VDR inhibitor -8%.
For O=C1COc2ccc(C(=O)CSc3nc4ccccc4c(=O)n3-c3ccc(Cl)c(Cl)c3)cc2N1 the results were VDR inhibitor 5%.
For CC1(c2nnc(Cc3ccccc3)o2)CC(c2ccc(Cl)cc2)=NO1 (configuration not stated) the results were VDR inhibitor 2%.
For CCOC(=O)C1(C)C=C(Nc2ccc(C(=O)O)cc2)C(=O)N1c1ccc(C(=O)O)cc1 (configuration not stated) the results were VDR inhibitor -4%.
`CC(=O)OCc1cnc(C)c2oc(=O)c(C(=O)Nc3ccc(C)cc3Cl)cc12` gave VDR inhibitor 5%.

Structures from the list above that contain a furan ring, fused or not, in the order listed:
`CC(CCc1ccccc1)NC(=S)NC(=O)c1ccco1` (configuration not stated) gave VDR inhibitor -27%.
O=C(c1ccc(F)cc1)n1nc(-c2ccc(Cl)cc2)nc1NCc1ccco1 was read as VDR inhibitor 9%.
C=C(C)Cn1c(SCC(=O)NCc2ccco2)nc2sc3c(c2c1=O)CCC3 was read as VDR inhibitor 5%.
`N#C/C(=C/c1ccc(N2CCCCCC2)o1)c1cccc(F)c1` gave VDR inhibitor 45µM*.
For Cc1nc2ccn(Cc3ccco3)c(=O)c2cc1C(=O)NCc1ccc(F)cc1 the results were VDR inhibitor -8%.
CCOC(=O)c1ccc(N2C(=O)c3n[nH]c(-c4ccco4)c3C2c2ccc(OCC)cc2)cc1 (configuration not stated) was read as VDR inhibitor -4%.

Later entries
`COc1ccccc1-c1noc(-c2ccc(NC3CCCCC3)c([N+](=O)[O-])c2)n1` gave VDR inhibitor 6%.
`CC(NC(=O)c1ccc(OC2CCN(S(=O)(=O)N(C)C)CC2)cc1)C1CC1` (configuration not stated) gave VDR inhibitor -4%.
`COC(=O)/C(NC(C)=O)=C(\C)c1ccc(Cl)cc1` gave VDR inhibitor -9%.
`CCCN1Cc2cccc(C(=O)NC(CC(=O)OCC)c3ccc(C)cc3)c2C1=O` (configuration not stated) gave VDR inhibitor 2%.
Screening N[C@@H](Cc1ccccc1)C(=O)O returned VDR inhibitor -1%.
`O=C1N(Cc2ccccc2)c2ccccc2C1(O)c1c[nH]c2ccccc12` (configuration not stated) gave VDR inhibitor 1%.
For CC1CN(S(=O)(=O)c2cccc(C(=O)Nc3ccccc3N3CCCC3)c2)CC(C)O1 (configuration not stated) the results were VDR inhibitor 2%.
COc1cc(NC(=O)CN2CCCCCC2)cc(OC)c1 was read as VDR inhibitor -4%.
`Cc1cc(C)c(C)c(OCC(O)CN2CCN(c3ccccn3)CC2)c1` (configuration not stated) gave VDR inhibitor 10%.
`COc1cc(C)ccc1OCc1cc(C(=O)N(C)CCCN2CCOCC2)no1` gave VDR inhibitor 6%.
O=C(CC1SC(N2CCCC2)=NC1=O)Nc1ccc(C(=O)NCCc2ccc(F)cc2)cc1 (configuration not stated) was read as VDR inhibitor -1%.
Cc1cc(S(=O)(=O)N2CCCC2C(=O)N2CCOCC2)c(C)cc1Cl (configuration not stated) was read as VDR inhibitor -4%.
`CN(CCc1ccccc1)C(=O)c1cc(COc2cccc(C(F)(F)F)c2)on1` gave VDR inhibitor -4%.
`CCc1cccc(C)c1NC(=O)NC1COc2ccccc2C1` (configuration not stated) gave VDR inhibitor 14%.
Screening CC(=O)C1=C(C)NC(C)=C(C(C)=O)C1c1cn(-c2ccccc2)nc1-c1cccs1 returned VDR inhibitor 3%.
For COc1ccccc1-n1c(SCC(=O)N2CCc3ccccc32)nc2c(c1=O)SCC2 the results were VDR inhibitor 6%.
`Cc1cc(C)nc(N(C#N)Cc2cccc3ccccc23)n1` gave VDR inhibitor 3%.
O=C(Nc1cc(C(F)(F)F)ccc1Cl)c1cc(S(=O)(=O)NCc2ccccc2)ccc1F was read as VDR inhibitor -3%.
Screening Cc1ccccc1Nc1nnc(C)c(=O)[nH]1 returned VDR inhibitor 7%.
`O=C(/C=C(\O)c1ccccc1)C(=O)NNC(=O)c1ccccc1[N+](=O)[O-]` gave VDR inhibitor -2%.
O=C(CNS(=O)(=O)c1ccccc1)NCC(=O)OCc1ccc(Br)cc1 was read as VDR inhibitor inconclusive.
For O=C(CCCn1c(SCC(=O)NCCc2ccccc2)nc2ccccc2c1=O)NCC1CCCO1 (configuration not stated) the results were VDR inhibitor -5%.
For C=CCSc1nnc2c(n1)[nH]c1c(C)cccc12 the results were VDR inhibitor 3%.
`COc1ccc(OC)c(-c2csc(NC(=O)Cc3ccccc3)n2)c1` gave VDR inhibitor -8%.

In the list so far, six have a nitro group on carbon.
Screening CNc1ccc(C(=O)Oc2cc(O/N=[N+](\[O-])N(C)C)c([N+](=O)[O-])cc2[N+](=O)[O-])cc1 returned VDR inhibitor -4%.
For COc1ccc(C(=O)c2cc([N+](=O)[O-])ccc2N2CCOCC2)cc1 the results were VDR inhibitor -29%.
For CCNc1cc(N2CCCC2)ccc1[N+](=O)[O-] the results were VDR inhibitor 12%.
`Cc1ccc(NC(=O)Cn2ccc([N+](=O)[O-])n2)cc1C` gave VDR inhibitor -9%.
`COc1ccccc1-c1noc(-c2ccc(NC3CCCCC3)c([N+](=O)[O-])c2)n1` gave VDR inhibitor 6%.
`O=C(/C=C(\O)c1ccccc1)C(=O)NNC(=O)c1ccccc1[N+](=O)[O-]` gave VDR inhibitor -2%.

Next section.
`CCN1C(=NCCc2ccccn2)N[C@@H](c2cccc(F)c2)C(C(=O)OC)=C1C` gave VDR inhibitor -15%.
O=C(CSCc1ccco1)N1CCc2ccccc21 was read as VDR inhibitor -18%.
For Cc1ccc(Nc2nc(Nc3ccc(C)cc3)nc(SC3=NCCS3)n2)cc1 the results were VDR inhibitor 35%[activator].
For Cc1ccc(C)c(S(=O)(=O)NCCC(=O)N2CCCC(C(N)=O)C2)c1 (configuration not stated) the results were VDR inhibitor 6%.
Screening O=C(c1cc2ccccc2oc1=O)N(Cc1ccccc1)C1CCS(=O)(=O)C1 (configuration not stated) returned VDR inhibitor -27%.
CC(C)CN1CCC2(CC1)CCN(C(=O)c1ccco1)CC2 was read as VDR inhibitor 1%.
`CC(C)=NOc1nc(N(C)C)nc(N2CCOCC2)n1` gave VDR inhibitor inconclusive.
`CC(C)CNC(=O)[C@H](Cc1ccccc1)NC(=O)c1cccs1` gave VDR inhibitor -8%.
Cc1nn(CCC(=O)NNC(=S)Nc2ccccc2)c(C)c1Br was read as VDR inhibitor 10%.
Screening CCOC(=O)NCc1ccccc1 returned VDR inhibitor -13%.
`Cc1cccc(N2C(=O)C(CC(=O)Nc3cccc(F)c3)N(Cc3cccs3)C2=O)c1` (configuration not stated) gave VDR inhibitor 5%.
`Cc1ccnn1C(C)C(=O)O` (configuration not stated) gave VDR inhibitor 24%.
COc1ccc(OCC(=O)Nc2cccc3cccnc23)cc1 was read as VDR inhibitor 6%.
O=C(C1CCN(S(=O)(=O)c2c(Cl)cccc2Cl)CC1)N1CCCC1 was read as VDR inhibitor -14%.
For O=C(/C=C/c1cccc([N+](=O)[O-])c1)Nc1ccc(NC(=O)c2cccs2)cc1 the results were VDR inhibitor -2%.
Screening COc1ccccc1C(=O)NC(=O)COC(=O)C1(C)CC1(Cl)Cl (configuration not stated) returned VDR inhibitor 1%.
Screening O=C(CCc1nnc2ccc(NCc3ccco3)nn12)Nc1ccccn1 returned VDR inhibitor -17%.
Screening Cc1cc(C)cc(N(CC(=O)NC2CCCC2)C(=O)CNC(=O)c2cccs2)c1 returned VDR inhibitor -7%.
C[C@H](NC(=O)c1nc[nH]c1C(=O)N(C)Cc1ccccc1)C(=O)OC(C)(C)C was read as VDR inhibitor 5%.
Cc1ccc(OCC(=O)OCc2cc(=O)n3ccsc3n2)cc1C was read as VDR inhibitor 11%.
For Cc1cc2c(cc1[N+](=O)[O-])NC(CNC(C)C)CC2 (configuration not stated) the results were VDR inhibitor 5%.
`COc1cccc(NC(=O)CN(C)C(=O)c2ccccn2)c1` gave VDR inhibitor 7%.
`COc1ccccc1NC(=S)NNC(=O)c1nn(C)c(C)c1Cl` gave VDR inhibitor -9%.
`CCOC(=O)C1CCCN(C(=O)/C=C/c2ccc([N+](=O)[O-])cc2)C1` (configuration not stated) gave VDR inhibitor -4%.
`Cc1ccc(-c2nn(-c3ccccc3)cc2/C=N/NC(=O)CSc2nnc(C)n2-c2ccccc2)cc1` gave VDR inhibitor 5%.
`CCN(C(=O)COC(=O)c1ccc2ccccc2c1)c1c(N)n(Cc2ccccc2)c(=O)[nH]c1=O` gave VDR inhibitor 12%.
For CCOC(=O)c1ccc(NC(=O)COc2ccc(S(=O)(=O)NC(C)CC)cc2)cc1 (configuration not stated) the results were VDR inhibitor 6%.
Clc1nc(NCC2CCCO2)c2[nH]cnc2n1 (configuration not stated) was read as VDR inhibitor -26%.
For O=C(O)C1C2C=CC(C2)C1C(=O)Nc1ccc(Cl)c(Cl)c1 (configuration not stated) the results were VDR inhibitor 4%.
`COc1ccc(N(C(=O)c2ccco2)C(C(=O)NC2CCCC2)c2ccc(OC)c(OC)c2)cc1` (configuration not stated) gave VDR inhibitor -10%.
Screening O=C(Cn1nnc(-c2ccccc2F)n1)Nc1ccc(C(=O)N2CCOCC2)cc1 returned VDR inhibitor 3%.
`CCOCCOc1cc(NCc2ccccc2)c2ncn(C(C)C)c2c1` gave VDR inhibitor -28%.
For COc1cc2c(cc1OC)C(C)N(C(=O)CCNC(=O)c1ccccc1)CC2 (configuration not stated) the results were VDR inhibitor -16%.
c1ccc(C2c3c(ccc4ccccc34)Oc3ncn4nc(-c5ccco5)nc4c32)cc1 (configuration not stated) was read as VDR inhibitor 4%.
`CSc1ccc(CN(C)C(=O)CSCC(=O)Nc2cc(C)on2)cc1` gave VDR inhibitor -10%.
Screening CCOc1ccc(NC(=O)CS(=O)CC(=O)NC2CCCc3ccccc32)cc1 (configuration not stated) returned VDR inhibitor 0%.
For CC1=NNC(=O)C1CCC(=O)N/N=C\c1cccc(Cl)c1 (configuration not stated) the results were VDR inhibitor -13%.
Screening CCc1ccccc1NC(=O)CSCc1cnn(-c2ccccc2)c1-n1cccc1 returned VDR inhibitor -5%.
`CCn1nc(C(=O)N[C@@H](CCSC)c2nc3ccccc3[nH]2)c2ccccc2c1=O` gave VDR inhibitor 5%.
For Cc1cccc(C(=O)NNC(=O)c2csc(N3CCOCC3)n2)c1C the results were VDR inhibitor -12%.

The list is partial; count on the stated rates, not on these rows.
